Screening results (PubChem)
hNpr1 antagonist – Natriuretic polypeptide receptor (hNpr1) antagonism - Primary qHTS; Atrial natriuretic peptide receptor 1 (Homo sapiens), P16066; HEK293 hNpr1 GloSensor cGMP, ANP-stimulated luminescence; Potency, µM (titrated, usually from 46.3 µM), for the others: at the highest dose activity change, negative = inhibition, hits mostly inhibitors; 76,000 tested, 1.6% active; AID 1347048, 2019; active = well fitted inhibition curve with a large enough effect; inconclusive = small, poorly fitted or top-dose-only effect; inactive = no such curve, though single readings can be large or run the other way;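 further: nearly all actives have a fitted effect of over 60% in size; nearly all hits also lower the signal before the agonist is added; a reference antagonist and vehicle were the controls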
Target sequence (P16066 whole entry, looked up): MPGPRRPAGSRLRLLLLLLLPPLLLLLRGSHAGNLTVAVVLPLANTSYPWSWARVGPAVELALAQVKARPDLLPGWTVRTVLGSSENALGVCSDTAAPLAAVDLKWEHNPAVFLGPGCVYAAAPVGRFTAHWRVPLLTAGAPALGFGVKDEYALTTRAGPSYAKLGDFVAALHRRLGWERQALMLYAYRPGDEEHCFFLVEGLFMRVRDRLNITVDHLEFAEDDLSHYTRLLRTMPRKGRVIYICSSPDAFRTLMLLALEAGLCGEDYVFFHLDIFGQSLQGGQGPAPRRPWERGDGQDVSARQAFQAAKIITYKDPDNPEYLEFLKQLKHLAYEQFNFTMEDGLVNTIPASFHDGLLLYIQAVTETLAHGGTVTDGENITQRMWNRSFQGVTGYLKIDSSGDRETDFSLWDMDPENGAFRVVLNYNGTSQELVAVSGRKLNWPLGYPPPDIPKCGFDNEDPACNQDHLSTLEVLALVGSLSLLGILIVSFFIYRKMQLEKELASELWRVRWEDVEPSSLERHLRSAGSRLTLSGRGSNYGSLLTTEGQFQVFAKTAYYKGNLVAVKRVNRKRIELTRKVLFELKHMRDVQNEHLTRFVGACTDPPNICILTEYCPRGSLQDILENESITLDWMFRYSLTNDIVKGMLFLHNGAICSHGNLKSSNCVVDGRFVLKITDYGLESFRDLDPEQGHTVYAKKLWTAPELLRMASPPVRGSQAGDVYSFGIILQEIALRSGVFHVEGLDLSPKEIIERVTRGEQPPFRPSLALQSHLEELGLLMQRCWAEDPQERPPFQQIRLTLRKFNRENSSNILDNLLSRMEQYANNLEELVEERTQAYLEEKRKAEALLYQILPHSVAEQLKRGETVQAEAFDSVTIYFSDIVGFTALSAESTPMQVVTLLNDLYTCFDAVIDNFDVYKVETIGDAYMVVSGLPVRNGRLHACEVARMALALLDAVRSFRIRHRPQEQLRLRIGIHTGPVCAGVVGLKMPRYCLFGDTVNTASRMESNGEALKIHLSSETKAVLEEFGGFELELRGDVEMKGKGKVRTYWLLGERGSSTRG
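HEK293 cells stably expressing human Npr1 and cGMP GloSensor pGS-40F, loaded 2 h with 2% GloSensor reagent, given compound 30 min at room temperature. Luminescence read before and 20 min after 0.1 nM hNppA.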
Starred values were filed as active, the others as inactive; ? = inconclusive; [ ] = dose if it differs, or a comment. On the % scale 0 is the no-effect control and ±100 the full control effect; potency means the concentration at half of the fitted maximal effect.

hNpr1 antagonist | SMILES
17% | CC(=O)N1CCCC1c1nc(C2CN(Cc3cc(F)c(F)cc3F)C2)no1 (stereo not drawn)
-9% | C[C@@H]1CN(C(=O)c2ccco2)C[C@H]1c1nc(-c2ccccc2)no1
-2% | O=C(NC1CCCC1)N1CCC(c2noc(-c3cccnc3)n2)C1 (stereo not drawn)
11%[70.6 µM] | C=CCNC(=O)N1CC[C@H]2CC(=O)N(CC(N)=O)CC[C@H]2C1
1% | CC1(c2ccccc2)N(Cc2ccccc2)C(=O)OC12CCN(C(=O)c1ccc(F)cc1)CC2 (stereo not drawn)
-2%[70.6 µM] | CC(C)(C)c1cc(C[C@@H]2CC[C@H](O)[C@@H](CNC3CCNCC3)O2)no1
1% | CC(C)Cc1cc(C(=O)N2CCOCC2CC(=O)N2CC=CC2)nc(=O)[nH]1 (stereo not drawn)
3% | COc1ccc(CN2CCC[C@H]2c2nc(-c3ccc(N4CCC(C(N)=O)CC4)nc3)no2)c(O)c1
0% | COc1ccc(CN2CCc3nc(C)nc(-c4ccc(O)cc4)c3C2)cc1
-1% | CCOc1ccc(NC(=O)N2CCc3cc(OC)c(OC)cc3C2CNC(=O)c2ccco2)cc1 (stereo not drawn)

Laid out differently: results already given
CC1(c2ccccc2)N(Cc2ccccc2)C(=O)OC12CCN(C(=O)c1ccc(F)cc1)CC2 (stereo not drawn)
  hNpr1 antagonist: 1%
CC(C)(C)c1cc(C[C@@H]2CC[C@H](O)[C@@H](CNC3CCNCC3)O2)no1
  hNpr1 antagonist: -2%[70.6 µM]

New compounds follow.
hNpr1 antagonist | SMILES
-24% | COc1ccc(NC(=O)Cn2c(-c3ccccc3)nc(C)c(CCO)c2=O)cc1Cl
4% | O=C(c1ccsc1)N1CCc2c(nc3cc[nH]n3c2=O)C1
-12% | O=C(NCc1ccccc1)NCC1Cn2cccc2C(=O)N1Cc1ccccc1 (stereo not drawn)
-2%[70.6 µM] | O=C1Cc2c(-c3ccccc3)n[nH]c2CN1CCc1ccncc1
-11% | CC(=O)N1CCN(C(=O)C[C@@H]2C[C@@H](C(C)C)[C@H](CNC(=O)Nc3cccc(F)c3)C=C2C)CC1
-15% | O=C(Cc1cccc(F)c1)NC1CCN(c2cc(-c3ccc(F)cc3)[nH]n2)C1 (stereo not drawn)
-7% | O=C(NCc1cccnc1)C1c2ccccc2C(=O)N(Cc2ccccc2)C12CCCC2 (stereo not drawn)
1% | COc1ccc(-c2nc3c(c(=O)[nH]2)CCN(C(=O)CSc2ccccc2)C3)cc1
-2%[70.6 µM] | O=C1NCc2ccc(-c3cc4c(ccn4Cc4cccnc4)c(C4=CCOCC4)n3)cc21
-3% | CCc1cn[nH]c1C1CCCN(C(=O)c2oc3cc(C)ccc3c2C)C1 (stereo not drawn)

Part of the list above, reformatted.
> COc1ccc(CN2CCc3nc(C)nc(-c4ccc(O)cc4)c3C2)cc1
- hNpr1 antagonist = 0%
> CCOc1ccc(NC(=O)N2CCc3cc(OC)c(OC)cc3C2CNC(=O)c2ccco2)cc1 (stereo not drawn)
- hNpr1 antagonist = -1%
> COc1ccc(NC(=O)Cn2c(-c3ccccc3)nc(C)c(CCO)c2=O)cc1Cl
- hNpr1 antagonist = -24%
> O=C(c1ccsc1)N1CCc2c(nc3cc[nH]n3c2=O)C1
- hNpr1 antagonist = 4%

Remaining list, next part:
hNpr1 antagonist | SMILES
-4% | O=C(Nc1cnc(-c2ccccc2)nc1)c1cccc(F)c1
2% | Fc1ccc(C2Cn3nnc(-c4nc(-c5cccc(Cl)c5)no4)c3CO2)cc1 (stereo not drawn)
0% | COCCOC1CCN(S(=O)(=O)c2ccccc2)CC1
0% | CCCc1ccc(C(=O)N2CCC3(CCCN(C)C3=O)C2)cc1 (stereo not drawn)
-2% | CCn1ccc(C(=O)N2CCC3(CC2)c2[nH]c4ccccc4c2CCN3C)n1
-3% | N[C@H]1CCCN(C(=O)c2cnc(C34CC5CC(CC(C5)C3)C4)[nH]c2=O)C1
-7% | CS(=O)(=O)N(Cc1cccnc1)C1CN(C(=O)CCC2CCCC2)C1
6% | COCc1noc([C@@H]2CN(C(=O)C3CC=CCC3)C[C@H]2C(N)=O)n1 (stereo partly drawn)
1% | COc1ccc(NC(=O)CCc2ccnc(N3CCCC3)c2)c(C)c1
-4% | Cc1nc2c(c(-c3ccc(Cl)cc3)n1)CCN(C(=O)Cc1cccc(Cl)c1)CC2
3% | COc1ccccc1Oc1ncccc1CNC(=O)c1csc(C)n1
14% | CN1C(=O)CC(C(=O)O)C12CCN(C(=O)NCCc1ccccc1)CC2 (stereo not drawn)
-5%[70.6 µM] | CC(C)(C)CN1CCOC[C@H]1c1ncc(-c2ccc(F)cc2F)[nH]1
-15% | CCc1noc(-c2cn(C3CCN(C(=O)c4cccc(Br)c4)C3)nn2)n1 (stereo not drawn)
0% | OCc1ccc(-c2nc(C3CCOC3)nn2C2CCCCC2)cc1 (stereo not drawn)
-26%[70.6 µM] | CCCNC(=O)[C@@H]1Cc2cn(Cc3cc(C)on3)c3cccc(c23)[C@H](CC(C)C)N1
-26% | Cc1cccc(-c2nc(Cn3c(-c4ccccc4)nc(C)c(CCO)c3=O)c(C)o2)c1
2%[70.6 µM] | COC[C@@H]1OC[C@@]2(C)C3CC[C@@H](O)[C@@H](CC(=O)N4CCC(C)CC4)[C@]3(C)CC[C@H]2O1 (stereo partly drawn)
-2% | Cc1cnc(C)c(-c2cc(O)c3c(c2)CNCCO3)n1
-2% | O=C(c1ccsc1)N1CCC(N2C(=O)C(O)C23CCCCC3)CC1 (stereo not drawn)
-11% | COc1cccc(-c2cn3c(n2)NCCC3)c1
0% | Cc1cn2nc(C(=O)NCc3cccc(Cl)c3)cc2c(N2CCSCC2)n1
-9% | CCC1(CC)CC1C(=O)NCc1cc2c(nc1OC)CN(C1CCCC1)C2=O (stereo not drawn)
0% | O=C(c1cccc(C(F)(F)F)c1)N1CCC(n2cnnc2C2CC2)CC1
4% | Cn1ccnc1-c1ccc(N2CC[C@@]3(O)CCN(S(C)(=O)=O)C[C@H]3C2)nn1
-3% | c1cnn(CCC2CCN(c3ncncn3)CC2)c1
1% | COCC1CN(C)CC12CCN(Cc1ccc(Br)o1)CC2 (stereo not drawn)
5% | CN(CCn1cc(-c2cncnc2)nn1)S(C)(=O)=O
-1% | CCN1C(=O)C2CC3(CCN(C(=O)c4ccc(C)s4)CC3)CN2C1=O (stereo not drawn)
-5% | CC(C)Oc1ccc(C(=O)NC2CCN(c3cn[nH]c(=O)c3)CC2)cc1
4% | NC(=O)c1cc[nH]c1C1CCCN(C(=O)NC2CCCCC2)C1 (stereo not drawn)
3% | O=C1N[C@H](Cc2ccc(O)cc2)C(=O)N2CC[C@H](NS(=O)(=O)c3ccc(Cl)cc3)C[C@@H]12
-9% | CS(=O)(=O)N1CCCN(Cc2ccc(C#N)cc2)CCNC(=O)CC1c1ccccc1 (stereo not drawn)
-1% | COc1ccc(N2CCN(C(=O)CN3C(=O)NC4(CCC(C)CC4)C3=O)CC2)cc1 (stereo not drawn)
0% | COc1cc2c(cc1OC)C(C[C@H]1CN(C(=O)c3ccc(C#N)cc3)CC[C@H]1CC(=O)O)=NCC2
-28% | O=C1[C@@H]2C[C@@H](CN2Cc2ccc(C(F)(F)F)cc2)Oc2ccccc2N1Cc1cccnc1
0% | CCCN1CCC2(CCN(C(=O)c3ccc(C)cc3)CC2)Oc2ccccc21
-23% | CC(C)c1ccc(C(=O)N2c3ccccc3CC2c2nc(C3CC3)no2)cc1 (stereo not drawn)
4% | COc1cc2c(cc1OC)CN(C(=O)C[C@@H]1CCNC[C@@H]1Cc1cc(-c3ccccc3)on1)CC2
-2%[70.6 µM] | CO[C@@H]1CO[C@H]2[C@@H]1OC[C@@H]2NS(=O)(=O)c1ccccc1C#N
-13% | COCCN1C(=O)c2cccn2CC1CNC(=O)COc1ccc(C)cc1 (stereo not drawn)
-2% | O=C(Cc1cccnc1)N1CCC(c2nc(C3CC3)no2)C1 (stereo not drawn)
1% | OCC1(CN2CCCC2)CCN(Cc2ccccc2F)CC1
0% | CC(C)c1nc(Cn2ncc(N3CCOC(CCN)C3)cc2=O)no1 (stereo not drawn)
3% | CC(C)c1noc(-c2cn(C3CCN(C(=O)c4ccccc4F)CC3)nn2)n1
-14% | COc1ccc(C2Cn3nnc(-c4noc(-c5ccccc5C)n4)c3CO2)cc1 (stereo not drawn)
-5% | COc1ccccc1CCc1nc(-c2nnn3c2COC(c2ccc(C)cc2)C3)no1 (stereo not drawn)
-1% | Cc1nc2c(c(-c3ccc(Cl)cc3)n1)CCN(C(=O)c1ccc(Cl)nc1)CC2
-7% | COCc1nc(C2CCCN(C(=O)c3cccc(F)c3)C2)no1 (stereo not drawn)
-10% | CS(=O)(=O)N1CCCN(C(=O)Cc2cccs2)c2ccccc21

(continued)
hNpr1 antagonist | SMILES
-1% | O=C(NCCOc1ccccc1)c1cnc2c(c1)N(C(=O)Cc1cccc(C(F)(F)F)c1)CCC2
-1% | COCC(=O)N[C@@H]1CN(Cc2ccc(C)o2)C[C@H]1CO
? | Clc1ccc(-c2cnc([C@@H]3COCCN3Cc3cnc4ccccc4c3)[nH]2)s1
5% | COc1cccc(COC2CN(Cc3ccccn3)C(=O)CN(C(=O)C3=NN(C)C(=O)CC3)C2)c1 (stereo not drawn)
2%[70.6 µM] | CC(=O)N1CCC(N[C@H]2C[C@@H](Cc3cc(CN4CCOCC4)on3)C2(C)C)CC1
-6% | CCn1nccc1C(=O)N1CCCC2(C1)Nc1cccnc1NC2=NCc1ccccc1 (stereo not drawn)
-1% | O=c1cc(-c2ccccc2Cl)nc(-c2ccc(CN3CCC[C@@H](O)C3)cc2)[nH]1
5% | NC(=O)NCCN1CCCC(N2CCN(c3cccc(C(F)(F)F)c3)CC2)C1 (stereo not drawn)
4%[70.6 µM] | CC(=O)NC1(C)CCCN(Cc2cc(-c3ccccc3)cs2)C1 (stereo not drawn)
-6% | O=c1c2c3c(nn2ccn1Cc1cc(F)ccc1F)CCCC3
-12% | CCN1C(=O)C2(CCN(S(=O)(=O)c3cc(F)ccc3OC)CC2)c2ccccc21
14µM* | Cc1ccc(-n2ncc3c2CCCC3NC(=O)c2cc(C(C)C)no2)cc1C (stereo not drawn)
2% | CC(Cc1cccnc1)NC(=O)c1cn(Cc2ccccc2C(F)(F)F)nn1 (stereo not drawn)
3% | CCCNC(=O)C1COC2(CCN(C(=O)c3cccc(OC)c3)CC2)N1C(=O)c1cccc(F)c1 (stereo not drawn)
-2% | COCCNC(=O)Cc1ccc(N(Cc2ccc(C)cc2)C(=O)c2ccco2)cc1
-13% | O=C(c1ccc(F)c(Cl)c1)N1CCC[C@H]1c1nc(-c2ccccc2)no1
-7% | OC1CN(Cc2ccccc2)CCN(Cc2cn[nH]c2-c2ccc(Cl)cc2)C1 (stereo not drawn)
2% | CCN1CCCN(S(=O)(=O)c2cc(OC)ccc2OC)CC12CCOCC2
18% | Cc1ccsc1C(=O)N1CCn2c(nnc2[C@@H]2C[C@@H](O)CN2Cc2ccccc2)C1
-3% | CCCN1C(=O)CCc2cc(NC(=O)c3ccc4c(c3)OCO4)ccc21
0% | Cc1nc(-c2c3n(c(=O)n(CC(=O)Nc4ccccc4C(F)(F)F)c2=O)CCCC3)no1
7.1µM* | COC(=O)c1cccc(C(=O)N2CCC(Cc3nc(-c4ccc(F)cc4)no3)CC2)c1
-7% | Cc1cc(C)n(Cc2ccc(C(=O)N(Cc3nccn3C)C3CC3)cc2)n1
7% | c1csc(-c2nc3nccc(-c4cccs4)n3n2)c1
7%[70.6 µM] | Cc1noc2c(-c3cccnc3NCC3CCOCC3)cc(-c3ccccc3)nc12
-2% | CN1C[C@H](NC(=O)c2ccc(F)cc2)CCC[C@@H](C(=O)N(C)Cc2cccnc2)CC1=O
-19%[70.6 µM] | CC1=C[C@@H](CNC(=O)NC(C)C)[C@H](C(C)C)C[C@H]1Cc1nnc(-c2ccccc2F)o1
1% | CC(=O)NCCOc1ccc(C(=O)N2CCC3(CCNCC3)CC2)cc1
-4% | Cc1nc2c(c(-c3ccc(O)cc3)n1)CN(C(=O)c1cccc(Cl)c1)CC2
1% | COc1ccc2[nH]c3c(c2c1)CCNC31CCN(C(=O)Cn2nc(C)cc2C)CC1
-2% | COc1cc(OC)cc(-c2nc(C3CC(=O)N(c4ccc(OC)c(OC)c4)C3)no2)c1 (stereo not drawn)
-4%[70.6 µM] | COc1ccc2nc3n(c2c1)[C@@H](CNC(=O)c1ccc(C#N)cc1)COC3
0% | CC(=O)N1C[C@@H](CN(C)C)[C@H](NC(=O)Cc2ccc(OC(F)(F)F)cc2)C1
0% | CN(CC1CCOCC1)C(=O)c1cccc(Br)c1
0% | Cc1ccc(Cl)cc1N1CCN(C(=O)CN2CC3CC(C2)[C@H]2CCCC(=O)N2C3)CC1 (stereo partly drawn)
-27% | CCCc1noc(-c2ccn3c(CNC(=O)c4ccc(F)cc4Cl)nnc3c2)n1
-1% | COCC(=O)N(C1CCOCC1)C1CCN(C(=O)c2cccc(C)c2)CC1
1% | CN1Cc2cccn2CC1CNC(=O)c1ccnn1C (stereo not drawn)

Looked up one by one from the entries so far (two):
hNpr1 antagonist | SMILES
0% | CC(=O)N1C[C@@H](CN(C)C)[C@H](NC(=O)Cc2ccc(OC(F)(F)F)cc2)C1
-2% | COc1cc(OC)cc(-c2nc(C3CC(=O)N(c4ccc(OC)c(OC)c4)C3)no2)c1 (stereo not drawn)

Only part of the results is shown; rates above refer to the full screens.
